# Bioassay records (PubChem BioAssay)
# HCMV UL50-53 inh – inhibitors of HCMV UL50-UL53 nuclear egress complex interaction | inhibition, % (no concentration beside the values) | HTRF UL50-UL53 interaction, normalized percent inhibition | 190,000 tested, 0.15% active | AID 1918969;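 active = both replicates at 50% or more, plus weaker picks with an unusually low signal ratio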;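 also: stock transfer was 100 nL into about 20 µL; 0% = negative control wells and 100% = wells with untagged competitor protein; inactives centre near -12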
# Sa growth inh – blocks Staphylococcus aureus growth; S. aureus RN4220 growth, OD600, 20 h, 42 °C; stronger effect = lower value; relative growth, % (no concentration beside the values); 170,000 tested, 0.53% active;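 active = growth at 42 °C up to 50% and 20 or more points under that at 30 °C, or under 10% at both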;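 also: 300 nL library stock went into each well; scaled to the means of positive and negative controls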
# GIV-Gai inh – GIV-Galpha-i interaction inhibition; P08753; Galpha-i3/FITC-GIV peptide fluorescence polarization, 90 min; stronger effect = lower value; scaled: aluminum fluoride 0%, vehicle 100%; percent of control (FP), % (concentration not given with the values); 210,000 tested, 0.42% active;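 active = replicate mean at 85% of control or lower, very high polarization wells dropped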;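 also: wells of about 15 µL received 100 nL stock; the first replicate is given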
# Target sequence (P08753 whole entry, looked up): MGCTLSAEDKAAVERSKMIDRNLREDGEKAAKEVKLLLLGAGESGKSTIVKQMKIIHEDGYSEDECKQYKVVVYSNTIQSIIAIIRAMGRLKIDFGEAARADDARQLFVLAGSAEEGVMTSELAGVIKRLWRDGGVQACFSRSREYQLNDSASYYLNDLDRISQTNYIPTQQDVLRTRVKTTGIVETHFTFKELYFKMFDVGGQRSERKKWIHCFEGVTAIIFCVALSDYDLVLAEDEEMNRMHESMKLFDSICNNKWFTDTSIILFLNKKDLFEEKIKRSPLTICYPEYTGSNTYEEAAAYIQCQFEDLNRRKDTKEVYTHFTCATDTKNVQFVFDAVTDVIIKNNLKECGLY
# Sa growth inh second temp – second read-out of Sa growth inh, no call of its own (marks repeat the call); relative growth, %; measured here: growth at 30 °C;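 optical density after 20 h as mean of two plates; 100% = untreated growth and lower means inhibition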
# Numbers without * were called inactive; · = no result given.
SMILES,HCMV UL50-53 inh,Sa growth inh,Sa growth inh second temp,GIV-Gai inh
COc1ccc(-n2nnc(-c3nsc(NC(=O)c4ccc(C)c(C)c4)n3)c2C)cc1Cl,·,102.9,88.5,99.6
Clc1ccc(Cn2nnc(N3CCCCC3)n2)cc1,2.6,107.2,101.2,105.5
OCCN1CCN(CCCN2c3ccccc3C=Cc3ccccc32)CC1,-52.4,·,·,105.9
O=C(O)c1sc2cc(F)ccc2c1Cl,-9.3,110.4,101.8,·
CNc1nc2[nH]c(=O)c3c(c2s1)OC(N)=C(C#N)C3c1cccc(F)c1 (stereo not given),-26.7,99.3,83.7,116.0
Cn1cnnc1S/C=C/C(=O)c1ccc(Cl)cc1,-16.7,82.4,86.2,102.3
Cc1ccc(-n2nc(C(=O)NCc3ccc(F)cc3Cl)c3c4ccccc4n(C)c3c2=O)cc1,-3.1,101.5,106.8,102.7
CC(C)NC(=O)C(C)SCc1ccccc1 (stereo not given),-11.4,95.2,101.3,102.8
CCOC(=O)c1c(-c2ccccc2)oc2ccc(NS(=O)(=O)c3cc(C)c(C)cc3C)cc12,-9.1,95.9,86.8,98.6
COc1ccc(Cc2nn3c(Cn4cnc5ccccc54)nnc3s2)cc1,-16.8,85.0,64.7,94.0
COc1ccc(/C=C2/SC(=O)N(CNc3cc(F)ccc3C)C2=O)cc1OC,-23.9,·,·,103.8
Cn1cc(-c2csc(N)n2)cn1,0.5,63.9,75.6,107.0
Brc1cccc(-c2nnc3sc(-c4cccnc4)nn23)c1,-20.7,·,·,90.4
N#CCSc1cccc[n+]1[O-],9.0,·,·,106.8
Cc1cccc(NC(=O)C(NS(=O)(=O)c2ccc3c(c2)oc(=O)n3C)C(C)C)c1 (stereo not given),-39.6,112.7,86.7,102.4
Cc1cc(C(=O)COc2ccc(-c3ccc(C#N)cc3)cc2)c(C)n1C,7.3,98.0,83.7,·
Cc1nc2ncccc2c(=O)n1-c1cccc(NC(=O)CC2CCCCC2)c1,6.4,·,·,98.7
CCC(Oc1ccccc1)C(=O)Nc1ccc(O)c(-c2nc3cc(C)ccc3o2)c1 (stereo not given),-11.9,105.5,86.4,99.2
COc1cc(-c2nc3ccccc3c(=O)n2NC(=O)c2ccc(F)cc2Cl)cc(OC)c1OC,-13.7,·,·,102.6
CCOc1ccc(Nc2nn(-c3ccc(OC(F)(F)F)cc3)nc2C(C)=O)cc1,0.4,106.9,94.5,103.5
O=C(CCSCc1cccc(Cl)c1)NCc1ccc(F)cc1Cl,·,88.0,87.4,99.3
CC1=CC(C)C2COC(c3ccc(OC(=O)NC4CCCCC4)cc3)C1C2C (stereo not given),-8.3,87.6,91.9,·
CC1CCCN(C(=O)Cn2c(=O)c(=O)n(Cc3ccc(Cl)cc3)c3ccccc32)C1 (stereo not given),5.0,·,·,103.2
CCSc1nn(CC(=O)Nc2ccccc2CC)c(N)c1S(=O)(=O)c1ccc(C)cc1,3.8,·,·,107.3
Cc1ccc(C2=NN3C(C2)c2ccccc2OC32CCCC2)o1 (stereo not given),-54.1,·,·,287.3
O=C(Cn1c(=O)n(Cc2ccc3c(c2)OCO3)c(=O)c2ccc(C(=O)NC3CCCCC3)cc21)NCc1ccco1,4.4,97.7,93.9,108.5
Cc1cc(C(=O)NCCc2c[nH]c3ccccc23)c2c(=O)n(C)c(=O)n(C)c2n1,-17.4,·,·,103.7
Cc1ccc(OCCCCn2nnc3sc4c(c3c2=O)CCCC4)cc1,-18.3,104.8,88.6,101.1
CCN(CC)S(=O)(=O)c1ccc2c(c1)nc(C(F)(F)F)n2CCC(=O)Nc1ccc(OC)cc1,-27.0,·,·,106.8
CC(C)CC1NC(=O)C(CCCN)NC(=O)C(C(C)C)NC(=O)C2CCCN2C(=O)C(Cc2ccccc2)NC(=O)C(CC(C)C)NC(=O)C(CCCN)NC(=O)C(C(C)C)NC(=O)C2CCCN2C(=O)C(Cc2ccccc2)NC1=O (stereo not given),-14.8,88.5,83.3,·
Cc1ccnc(NC(c2ccccn2)c2c(NC(=O)c3ccccc3)sc(C)c2C)c1 (stereo not given),-17.3,·,·,103.4
CS(=O)(=O)c1cccc(S(=O)(=O)NC2CCCCC2)c1,0.2,92.5,99.8,102.5
CN1C(C(=O)c2ccccc2)=C(OC(=O)Cc2ccccc2)c2ccccc2S1(=O)=O,-6.7,91.7,80.7,102.7
O=S(=O)(c1ccccc1)N1CCC2(CC1)OCCN2S(=O)(=O)c1ccccc1,-18.9,112.9,89.7,102.1
O=C(CCc1nc2cc(C(F)(F)F)ccc2n(Cc2ccccc2)c1=O)NCc1ccco1,-13.2,95.5,85.3,·
CC1(C)CC(N=C=S)CCO1 (stereo not given),25.1,87.8,74.9,96.2
O=C1CCCN=C(N(C(=O)c2ccco2)c2ccc(F)cc2F)S1,7.5,94.0,91.3,102.8
CC(/C=C1\SC(=S)N(CCC(=O)Nc2cc(C)on2)C1=O)=C\c1ccccc1,-5.2,·,·,104.4
NS(=O)(=O)c1cc(Cl)ccc1Cl,-7.6,98.2,91.3,·
COc1cccc(-c2cc(C(F)(F)F)c3c(C)nn(-c4ccc(Cl)cc4)c3n2)c1,-8.4,·,·,100.2
O=C(O)c1ccc(CNCc2ccccc2)cc1,-20.5,107.4,89.3,99.4
CCN(CC)c1ccc(-c2nnc(SC(C)C)n2C)cc1,-2.7,80.8,92.5,·
O=C1Nc2ccc([N+](=O)[O-])cc2C1(O)N1CCOCC1 (stereo not given),-58.6,·,·,98.5
CC1CCCC/C1=N/NC(=O)Cn1ccc(C(F)(F)F)n1 (stereo not given),-31.1,68.5,93.7,·
O=C(c1cc(-c2cccnc2)n[nH]1)N1CCN(c2ccc(F)cc2)CC1,4.9,·,·,103.2
CS(=O)(=O)c1ccc2nnn(OCC(=O)Nc3cccc(C#N)c3)c2c1,-31.0,80.5,100.3,·
COC(=O)Cn1c(C(=O)OC)cc2c1ccn2C,8.6,79.1,91.3,101.1
C#CCn1c(=NC(=O)COc2ccccc2)sc2cc(S(N)(=O)=O)ccc21,-25.7,92.9,90.4,103.6
CN(c1ccccc1N(C)S(=O)(=O)c1ccccc1)S(=O)(=O)c1ccccc1,-5.9,101.0,92.0,·
C=CCNC(=O)N1c2ccccc2Sc2ccccc21,-31.5,82.6,80.1,99.4
# New compounds follow:
SMILES,HCMV UL50-53 inh,Sa growth inh,Sa growth inh second temp,GIV-Gai inh
COCCOc1cc2ncnc(Cl)c2cc1OCCOC,-35.9,·,·,105.2
Clc1ccc(CSc2ncccn2)cc1,·,95.3,98.9,103.4
Cc1[nH]n(-c2ccccc2)c(=O)c1C(c1cc(Cl)ccc1O)c1c(C)[nH]n(-c2ccccc2)c1=O,-22.9,85.4,61.5,100.3
Cc1cnc(NC(=O)c2cn(-c3ccccc3)nc2-c2cccnc2)s1,-17.9,66.4,78.6,·
O=C(NCc1ccccc1)c1ccc(-n2c(-c3ccccc3)cc3c2CCCC3)cc1,·,86.7,77.7,108.0
O=S(=O)(c1cccs1)N(Cc1ccccc1)Cc1ccccc1,-5.5,94.1,82.0,100.6
COc1cc(C#N)ccc1OCC(=O)Nc1ccc(C)cc1C,-32.5,105.6,83.8,108.3
O=C(CCn1c(=O)c2sccc2n(Cc2ccccc2F)c1=O)NCc1ccc2c(c1)OCO2,6.3,98.6,87.8,108.6
Cc1ccc(C)c(NC(=O)C(C)n2c(=O)cc(C(F)(F)F)c3c(C)nn(C)c32)c1 (stereo not given),·,85.9,89.7,102.7
O=S(=O)(NCC1CCN(Cc2ccc(Cl)cc2)CC1)c1cnc[nH]1,-17.3,107.0,82.6,108.3
Cn1nnc(NC(=S)NC(=O)Cc2ccccc2)n1,7.5,98.7,93.8,107.5
O=c1nc2sc3ccccc3n2c(=O)n1-c1ccc(Cl)c(Cl)c1,-17.0,102.7,85.5,102.5
CCc1ccc(NC(=O)C(C)OC(=O)c2cnc(Cl)c(Cl)c2)cc1 (stereo not given),-3.8,103.2,92.3,·
CCOc1ccc2cc(C3=NN(C(=O)CCC(=O)O)C(c4ccc(C)cc4)C3)c(=O)[nH]c2c1 (stereo not given),-23.7,·,·,106.5
CCCN1C(=O)C(C#N)=C(C)/C(=C\c2ccc(-c3ccc(Cl)cc3)o2)C1=O,·,88.8,87.8,104.4
Cc1cc(N2C(=O)CSC2c2cccc([N+](=O)[O-])c2)ccc1Br (stereo not given),-21.0,·,·,97.9
CCCOc1ccc(CNC(=O)c2ccc3c(c2)N(Cc2ccccc2)CCS3)cc1,15.0,94.2,98.2,104.4
COc1cccc(-n2cc(C(=O)Oc3ccc(F)cc3)c3ccccc3c2=O)c1,·,101.7,82.8,110.5
N#Cc1c(N)n(CCC2=CCCCC2)c2nc3ccccc3nc12,-27.8,66.8,77.6,·
O=C(/C=C/c1ccccc1)OCC(=O)N1CCCC1,-83.6,86.8,86.8,·

# Fetched one by one from the list above (two):
SMILES,HCMV UL50-53 inh,Sa growth inh,Sa growth inh second temp,GIV-Gai inh
CCCN1C(=O)C(C#N)=C(C)/C(=C\c2ccc(-c3ccc(Cl)cc3)o2)C1=O,·,88.8,87.8,104.4
CCc1ccc(NC(=O)C(C)OC(=O)c2cnc(Cl)c(Cl)c2)cc1 (stereo not given),-3.8,103.2,92.3,·

# (list continues)
SMILES,HCMV UL50-53 inh,Sa growth inh,Sa growth inh second temp,GIV-Gai inh
O=C(CC1NC2CCCCC2NC1=O)NCc1ccccc1 (stereo not given),-25.1,96.5,95.8,106.8
O=C(CN1C(=O)CSc2ccc(C(=O)N3CCCC3)cc21)NCCCN1CCCC1,-28.2,·,·,104.3
COc1ccccc1C(=O)N=S1CCN(S(=O)(=O)c2ccc(Cl)cc2)CC1,-13.5,80.8,77.6,93.8
O=C(Cn1c(=O)c2ccccc2n2nncc12)Nc1ccccc1C(F)(F)F,-2.8,102.2,90.2,109.5
Cc1noc(-c2ccc(NC(=O)C3CC(=O)N(Cc4ccccc4)C3)cc2)n1 (stereo not given),-17.5,·,·,104.4
CC(C)CNC(=O)c1cc2ccccc2oc1=O,-51.7,99.4,95.2,·
CCc1ccccc1N(C)C(=O)Cc1c(C(=O)O)c(C)cn1C,·,92.7,85.6,102.3
CC(=O)Nc1c(C)cc(C(O)(C(F)(F)F)C(F)(F)F)cc1C,-6.2,109.8,104.6,100.4
CCCc1cc(=O)n2[nH]c(CNc3cc(Cl)ccc3OC)nc2n1,-27.0,·,·,102.7
C=CCNC(=O)C1CCN(S(=O)(=O)c2ccccc2C(F)(F)F)CC1,-8.6,79.9,87.0,·
CC1(C)CC2CC(C)(CN2C(=O)COC(=O)C2=NNC(=O)CC2)C1 (stereo not given),-26.5,98.8,94.0,·
O=C(NCC(c1ccccc1)N1CCCC1)c1cc(-c2ccc(Br)cc2)on1 (stereo not given),-30.8,·,·,104.4
c1ccc(CN2CCCC(c3ccccc3)C2)cc1 (stereo not given),-13.6,79.4,80.8,101.5
Cc1ccc(C(=O)N2CCC(N3CCN(Cc4ccc(F)cc4)C(=O)C3=O)CC2)cc1,·,87.7,87.2,100.2

# Filtered by structure, those above containing an aryl methoxy group.
SMILES,HCMV UL50-53 inh,Sa growth inh,Sa growth inh second temp,GIV-Gai inh
COc1ccc(-n2nnc(-c3nsc(NC(=O)c4ccc(C)c(C)c4)n3)c2C)cc1Cl,·,102.9,88.5,99.6
COc1ccc(Cc2nn3c(Cn4cnc5ccccc54)nnc3s2)cc1,-16.8,85.0,64.7,94.0
COc1ccc(/C=C2/SC(=O)N(CNc3cc(F)ccc3C)C2=O)cc1OC,-23.9,·,·,103.8
COc1cc(-c2nc3ccccc3c(=O)n2NC(=O)c2ccc(F)cc2Cl)cc(OC)c1OC,-13.7,·,·,102.6
CCN(CC)S(=O)(=O)c1ccc2c(c1)nc(C(F)(F)F)n2CCC(=O)Nc1ccc(OC)cc1,-27.0,·,·,106.8
COc1cccc(-c2cc(C(F)(F)F)c3c(C)nn(-c4ccc(Cl)cc4)c3n2)c1,-8.4,·,·,100.2
COc1cc(C#N)ccc1OCC(=O)Nc1ccc(C)cc1C,-32.5,105.6,83.8,108.3
COc1cccc(-n2cc(C(=O)Oc3ccc(F)cc3)c3ccccc3c2=O)c1,·,101.7,82.8,110.5
COc1ccccc1C(=O)N=S1CCN(S(=O)(=O)c2ccc(Cl)cc2)CC1,-13.5,80.8,77.6,93.8
CCCc1cc(=O)n2[nH]c(CNc3cc(Cl)ccc3OC)nc2n1,-27.0,·,·,102.7
